Mtb hypoxia rep – Mtb hypoxia fluorescent reporter inhibition | M. tuberculosis hypoxia-regulated fluorescent reporter, fluorescence | fluorescence inhibition, % (no concentration beside the values) | 300,000 compounds, 0.1% hits | AID 1159583;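 active = 35 to 45% if threefold the growth effect, above 45% if 1.5-fold the growth effect; inactive = the rest, general growth blockers included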;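 note: wells of about 50 µL received 100 nL stock; 0% = vehicle wells and 100% = reference inhibitor wells; whole bacteria with a GFP reporter of the hypoxia response; strong numbers were not always called active; many hits fall short of the cut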
RN4220 kill – kills Staphylococcus aureus RN4220 | S. aureus RN4220 growth, OD600, 16 h | inhibition, % (concentration not given with the values) | 330,000 compounds, 0.33% hits | AID 1259311;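 active = z-score of -3 or lower and OD600 up to 0.18 on both plates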;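 note: plate controls were untreated cells for no effect and reference antibiotic for full effect; stock transfer was 100 nL into about 80 µL; one replicate is shown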
BJeLR lethal – kills HRASV12-expressing BJeLR cells. BJeLR (HRASV12) viability, CellTiter-Glo ATP luminescence, 48 h; reference of the scale not given here. inhibition, % (test concentration not listed). 300,000 compounds, 0.17% hits. AID 1554;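 active = replicate mean above 50%; inconclusive = above 50% but judged a plate artefact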;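 note: 50 nL library stock added to about 25 µL; numbers are from one replicate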
Bead autofluor – counter-screen for toxin protease inhibitors: compound fluorescence | compound autofluorescence counterscreen, microsphere flow cytometry; stronger effect = higher value | fluorescence intensity (concentration not given with the values) | 360,000 compounds, 3.1% hits;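 active = at least 3 SD above the mean of all compounds, about 16000 in these data; inconclusive = too few beads counted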;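 note: 100 nL of 1 mM stock went into each well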
PrP 5UTR inh – inhibition of PrP 5' UTR reporter expression. cell-based PrP 5' UTR mRNA reporter, plate reader. inhibition, % (no concentration beside the values). 340,000 compounds, 0.35% hits;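 active = every replicate at 50% or more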;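 note: 0 = median of the neutral control wells; tested in H4 reporter cells; numbers are from one replicate; inactives centre near -14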
Sa ugtP lethal – growth inhibition of S. aureus ugtP deletion strain | 330,000 compounds, 0.54% hits | AID 1259309 | S. aureus RN4220 ugtP deletion, OD600 growth, 16 h; some inactives read as strong as hits | growth inhibition, % (test concentration not listed);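 active = z-score under -3 and OD600 up to 0.15 on both plates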;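 note: plate controls were untreated wells for no effect and antibiotic for full effect; wells of about 80 µL received 100 nL stock; the first replicate is given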
Mtb hypoxia rep growth – second read-out of Mtb hypoxia rep, no call of its own (marks repeat the call); growth inhibition, %; measured here: M. tuberculosis growth (absorbance);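 0% = vehicle and 100% = reference antibiotic; read after six days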
* hit, by the source's call; ? = inconclusive; . = not tested or not shown.

Start of the listing, in advance:
SMILES | Mtb hypoxia rep | Mtb hypoxia rep growth | RN4220 kill | BJeLR lethal | Bead autofluor | PrP 5UTR inh | Sa ugtP lethal
CCOC(=O)N1CCN(c2c(NCc3ccccc3Cl)c(=O)c2=O)CC1 | 4 | -6 | -1.7 | -1 | 5778 | -25 | 9
Cc1ccc(NC(=O)CNC(=O)c2ccco2)cc1 | 17 | 8 | 2.6 | 2 | 3229 | -23 | 7
O=C(COc1ccc([N+](=O)[O-])cc1)Nc1cccc2nsnc12 | -4 | -4 | 2.9 | 1 | ? | 0 | -7
CN1/C(=C\C(=O)COC(=O)CN2C(=O)C3CC=CCC3C2=O)C(C)(C)c2ccccc21 (stereo unspecified) | 7 | 8 | 3.7 | 4 | 9739 | -13 | 3
CCOc1cc(C=NNC(=O)c2cc(-c3cccnc3)nc3ccccc23)ccc1O | 10 | -2 | -6.9 | . | . | . | -1

The whole of this part, from the first entry:
SMILES | Mtb hypoxia rep | Mtb hypoxia rep growth | RN4220 kill | BJeLR lethal | Bead autofluor | PrP 5UTR inh | Sa ugtP lethal
CCOC(=O)N1CCN(c2c(NCc3ccccc3Cl)c(=O)c2=O)CC1 | 4 | -6 | -1.7 | -1 | 5778 | -25 | 9
Cc1ccc(NC(=O)CNC(=O)c2ccco2)cc1 | 17 | 8 | 2.6 | 2 | 3229 | -23 | 7
O=C(COc1ccc([N+](=O)[O-])cc1)Nc1cccc2nsnc12 | -4 | -4 | 2.9 | 1 | ? | 0 | -7
CN1/C(=C\C(=O)COC(=O)CN2C(=O)C3CC=CCC3C2=O)C(C)(C)c2ccccc21 (stereo unspecified) | 7 | 8 | 3.7 | 4 | 9739 | -13 | 3
CCOc1cc(C=NNC(=O)c2cc(-c3cccnc3)nc3ccccc23)ccc1O | 10 | -2 | -6.9 | . | . | . | -1
CCc1ccc(NC(=O)CNS(=O)(=O)c2c(C)noc2C)cc1 | . | . | 3.4 | 7 | 3728 | -3 | 2
O=C(CSc1n[nH]c(=O)[nH]c1=O)NN=C/C=C/c1ccccc1 | 9 | 6 | 7.2 | . | . | . | -1
CC(=O)c1ccc(-c2ccc(C3C4C=CCC(C)C4C(=O)N3Cc3ccccc3)c(F)c2)cc1 (stereo unspecified) | 8 | 16 | 4.2 | . | . | . | -17
CC1C2CC(C(CN(C)C)C2=NO)C1(C)C (stereo unspecified) | 6 | 5 | 5.1 | . | . | . | -1
O=C(CN1C2CCCC1CC(NC(=O)c1ccccc1)C2)Nc1ccccc1C(F)(F)F (stereo unspecified) | -7 | -5 | 5.9 | 1 | 4537 | -6 | -14
Cn1nnnc1SCCNCc1ccccc1OCc1ccccc1 | 3 | 10 | 3.9 | -6 | 2126 | -17 | 2
CC1=CCC2C(=O)N(C(C)c3ccccc3)C(=O)C2C1 (stereo unspecified) | 7 | 3 | 6.2 | -4 | 11344 | -19 | 9
CCOc1ccc(NC(=O)c2ccccc2NS(C)(=O)=O)cc1 | 6 | 12 | 1.9 | -1 | 9542 | -40 | -2
COC(CN(C)C(=O)c1ccc2c(c1)NC(=O)c1ccccc1S2)OC | 10 | 1 | 3.5 | -1 | 3567 | -16 | 7
CCC1CCCCN1C(=O)COC(=O)c1cc(Br)ccc1Cl (stereo unspecified) | 4 | 7 | 8.1 | 0 | 3517 | -5 | 12
O=C(O)c1ccc(COc2ccccc2C=C2C(=O)c3ccccc3C2=O)cc1 | -9 | -6 | 2.6 | 8 | 2194 | -15 | -8
COc1cc(NS(=O)(=O)c2ccc(NC=CC(=O)c3ccc(OC)c(OC)c3)cc2)nc(OC)n1 | 2 | 7 | 1.3 | . | . | . | -7
O=C(NC1=NCCS1)c1ccc(F)c(S(=O)(=O)N2CCOCC2)c1 | 15 | 25 | 3.9 | . | 3074 | -14 | 7
Nc1cccc(S(=O)(=O)NC2=NCCC2)c1 | . | . | -2.8 | -1 | 4065 | 0 | 4
O=C(c1ccc(=O)[nH]c1)N1CCCc2ccccc21 | -5 | -11 | 3.4 | -7 | 2983 | -21 | 5
Cc1cc(C)c2nc(N3CCCC(C(=O)NC4CCCC4)C3)sc2c1 (stereo unspecified) | 9 | 12 | -1.6 | -13 | 5383 | -19 | -7
Cc1ccc(NC(=S)NC(NC(=O)C(C)(C)C)C(Cl)(Cl)Cl)c(C)c1 (stereo unspecified) | 2 | -8 | -2.2 | 0 | 7355 | -13 | 3
COC(=O)c1c(NC(=O)CN2CCC(C)CC2)c2c(C)cccc2n1C | -89 | -22 | 0.0 | -2 | . | . | 3
O=C1c2ccsc2SCCN1Cc1ccccc1 | 17 | 9 | 9.6 | 1 | 3415 | -25 | 8
O=C(OCC(=O)N1CCN(C(=O)c2ccco2)CC1)c1ccc(Cl)cc1 | 4 | -11 | 1.1 | . | . | -4 | 3

Looked up above.
PrP 5UTR inh with CCOC(=O)N1CCN(c2c(NCc3ccccc3Cl)c(=O)c2=O)CC1 stands at -25
BJeLR lethal with COC(=O)c1c(NC(=O)CN2CCC(C)CC2)c2c(C)cccc2n1C stands at -2
Sa ugtP lethal with O=C(NC1=NCCS1)c1ccc(F)c(S(=O)(=O)N2CCOCC2)c1 stands at 7

Later entries:
SMILES | Mtb hypoxia rep | Mtb hypoxia rep growth | RN4220 kill | BJeLR lethal | Bead autofluor | PrP 5UTR inh | Sa ugtP lethal
O=C(NC1CCCCC1)c1cc(C2CC2)on1 | . | . | 8.3 | -1 | 4055 | -34 | 6
Cc1cc(C)cc(OCCCn2ccnc2)c1 | 11 | 13 | 0.3 | -2 | 4227 | -13 | 10
Cc1sc2nc3ccc(N4CCCC4)nn3c(=O)c2c1C | 10 | 13 | 4.4 | 3 | 5795 | -40 | -1
CCC(C)(C)NC(=O)Cc1ccc(C)cc1 | 18 | 11 | -0.1 | -9 | 9485 | -35 | 4
COc1ccc(P(=O)(COc2ccc([N+](=O)[O-])cc2)c2ccc(OC)cc2)cc1 | 8 | -2 | 2.0 | -23 | 2776 | -9 | 13
COc1cccc2sc(Nc3nc(-c4ccncc4)cs3)nc12 | 2 | -5 | 2.1 | 27 | 4084 | 2 | 22
COc1cccc(CN2CCN(Cc3nc4c(s3)CCCC4)CC2CCO)c1 (stereo unspecified) | -4 | -1 | 2.7 | 10 | 2661 | -31 | 4
CC(=O)Nc1ccc(NC(=O)CSc2nnc(NC(=O)c3ccco3)s2)cc1 | 14 | 10 | 0.4 | -4 | 4463 | -7 | 6
C=CCN(C(CC(C)C)C(=O)OC)S(=O)(=O)N(CC=C)C(CC(C)C)C(=O)OC (stereo unspecified) | 7 | 6 | 5.7 | . | . | . | -24
O=C(NC(=S)Nc1ccc(Cl)cn1)c1cc([N+](=O)[O-])ccc1N1CCOCC1 | -3 | -4 | 1.1 | 0 | 4692 | 8 | 2
CC(C)(C#N)N([O-])C=C[N+](=O)C(C)(C)C#N | 2 | -1 | 1.0 | 15 | 10320 | -2 | -2
Cc1ccc(C(=O)CSc2nc(C)cc(SCc3nnc(-c4ccccc4)o3)n2)cc1 | 3 | 5 | -0.5 | 2 | 3974 | -13 | -6
COc1cc(C)c(C(=O)Oc2cc(C)c(C(=O)O)c(O)c2C)c(OC)c1C | . | . | . | -1 | 5739 | -5 | .
COc1ccc2[nH]c(=O)c(C3c4cc(OC)c(OC)cc4CCN3C(=O)c3ccco3)cc2c1 (stereo unspecified) | 3 | 0 | 2.5 | -6 | 5940 | -13 | 14
CCN(CC)c1ccc(CNc2nc3ccccc3n2CC)cc1 | 13 | -5 | -3.9 | -5 | . | -17 | 8
NS(=O)(=O)c1ccc(NC(=O)COC(=O)c2cc(Cl)ccc2[N+](=O)[O-])cc1 | -4 | -1 | 8.8 | 9 | 3966 | -11 | -1
Nc1nccnc1C(=O)OCC(=O)c1ccc[nH]1 | 3 | -1 | 2.7 | -6 | 5964 | -19 | 4
Cc1ccc(C=NNc2cn[nH]c(=O)n2)o1 | 16 | -4 | 5.5 | . | . | . | 10
O=C(COC(=O)c1c[nH]c2ccccc12)Nc1ccccc1 | 0 | 0 | 4.5 | . | 3761 | -28 | -10
COCCNC(=O)C(c1ccc(C)cc1)N(C(=O)CCC(=O)Nc1ccccn1)c1ccc(F)cc1 (stereo unspecified) | 3 | 7 | -0.6 | 1 | 5857 | -2 | 8
CC(C)c1ccc(NC(=O)[C@@H](C)NC(=O)[C@@H]2Cc3ccccc3CN2)cc1 | 3 | 8 | 1.5 | -8 | 5701 | -13 | 6
NC(=O)c1ccsc1NC(=O)COC(=O)CNC(=O)c1ccc(Cl)cc1 | 9 | 8 | 5.4 | . | 3713 | -12 | 4
CCCCCCC(=O)N/N=C(\C)Cc1ccccc1 | . | . | . | -2 | 2527 | -8 | .
O=C(/C=C/c1cccc(F)c1)Nc1ccc(S(=O)(=O)Nc2ncccn2)cc1 | 24 | 10 | 3.3 | -2 | 6911 | -20 | -3
COc1ccccc1-n1cnnc1SCC(=O)N1CC(=O)Nc2ccccc21 | 2 | 4 | -4.4 | -8 | ? | -8 | 3

Looked up by structure from above:
SMILES | Mtb hypoxia rep | Mtb hypoxia rep growth | RN4220 kill | BJeLR lethal | Bead autofluor | PrP 5UTR inh | Sa ugtP lethal
NC(=O)c1ccsc1NC(=O)COC(=O)CNC(=O)c1ccc(Cl)cc1 | 9 | 8 | 5.4 | . | 3713 | -12 | 4
O=C(/C=C/c1cccc(F)c1)Nc1ccc(S(=O)(=O)Nc2ncccn2)cc1 | 24 | 10 | 3.3 | -2 | 6911 | -20 | -3

More results follow:
SMILES | Mtb hypoxia rep | Mtb hypoxia rep growth | RN4220 kill | BJeLR lethal | Bead autofluor | PrP 5UTR inh | Sa ugtP lethal
Cc1cc2ccccc2n1CCNC(=O)c1ccc(S(=O)(=O)N2CCCCC2)cc1 | -3 | 14 | -10.0 | 3 | 1440 | -4 | -7
Cn1c(C(=O)OCC(=O)NCCc2ccccc2)cc2sccc21 | -10 | -3 | -0.7 | 8 | 10103 | -18 | -8
CSc1ccc(CN2CCN(S(=O)(=O)Cc3ccccc3)CC2)cc1 | 8 | 2 | 0.1 | 10 | 27972* | -8 | 16
CC(=O)Nc1ccc(N(C(=O)c2ccco2)C(C(=O)NC2CCCC2)c2ccncc2)cc1 (stereo unspecified) | -2 | 1 | 0.0 | -16 | 5877 | -15 | 9
Nc1ncnc2nc(Sc3ccc(Cl)cc3)[nH]c12 | . | . | 2.4 | 20 | 4967 | -1 | 11
COc1ccc(C(=O)N(CCCO)Cc2cc3c(C)ccc(C)c3[nH]c2=O)cc1OC | -13 | 4 | -0.1 | -1 | 3344 | -2 | -4
COc1ccc(C=NNc2nnc(Cc3ccccc3)c(=O)[nH]2)cc1OC | -3 | 1 | -2.2 | . | . | . | 6
COc1ccc(OC)c(CCNC(=O)C2CCN(c3nnc(-n4cccc4)s3)CC2)c1 | 3 | 3 | 8.7 | 4 | 4320 | -20 | -10
COC(=O)c1ccc(CNC(=O)C(C)N=C2NS(=O)(=O)c3ccccc32)cc1 (stereo unspecified) | 7 | 1 | 6.5 | . | 6716 | -25 | 4
Cc1occc1C(=O)NCc1cccc(CNC(=O)c2ccoc2C)c1 | -3 | 6 | 2.8 | 9 | 6612 | -21 | -5
CN(CCNC(=O)CCCOc1cc(=O)n(C)c2ccccc12)Cc1ccccc1 | -2 | 11 | -0.1 | 3 | 2525 | -23 | 3
CCOc1ncccc1C(=O)Nc1ccc(OC)c(S(=O)(=O)N2CCOCC2)c1 | 2 | -3 | 4.7 | . | . | -7 | 9
CCc1nnc(NC(=O)c2sc3nc4cc(C)ccc4cc3c2N)s1 | 3 | 5 | 34 | 4 | 10266 | -28 | -10
COCc1ccc(C(=O)NC2CCSc3ccccc32)cc1 (stereo unspecified) | 22 | 28 | 6.1 | -2 | 5451 | -19 | 10
COc1cccc(CC2(CO)CCN(Cc3cnc(N4CCOCC4)s3)CC2)c1 | 2 | -3 | 2.8 | -4 | 5030 | -12 | -1
Cc1onc(-c2c(Cl)cccc2Cl)c1NC(=O)NNc1ccccc1 | -5 | 3 | -3.9 | -3 | 6201 | 1 | -5
CCN(CC)CC(=O)Nc1ccc(Cl)cc1C(=O)c1ccccc1 | 7 | 7 | 10 | 3 | 3023 | -9 | 10
Cc1oc(-c2ccoc2)nc1CN(Cc1ccccc1)CC1CC1 | . | . | . | 1 | 3406 | 2 | .
COc1cccc(Nc2nc3ccccc3c(=O)[nH]2)c1 | 5 | 8 | 1.2 | 8 | 4061 | -28 | -8
